Assay outcomes deposited in PubChem BioAssay by Broad Institute.
FGF22 binding: binders of recombinant human FGF22 by thermal shift; SYPRO orange fluorescence; percent of sucrose octasulfate shift, DMSO zero; Q9HCT0; calls only at 9.99 µM; 1.5% of 340,000 active;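 active = melting point raised past a set limit in the mean and every replicate; three in four hits are not shown here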
Target sequence (Q9HCT0 whole entry, looked up): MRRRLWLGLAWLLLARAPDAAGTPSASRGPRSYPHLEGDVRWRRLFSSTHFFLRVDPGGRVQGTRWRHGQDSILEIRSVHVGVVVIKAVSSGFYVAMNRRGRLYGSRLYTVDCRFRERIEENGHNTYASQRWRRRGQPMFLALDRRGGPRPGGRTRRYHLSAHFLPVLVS
rRNA inh HTS: selective bacterial rRNA inhibition in E. coli. E. coli WT GFP vs humanized-ribosome RFP mutants, fluorescence, 24 h; active compounds read low; DMSO median 0, no signal -100. GFP signal change (wild-type ribosome), % (no concentration beside the values). 1.6% of 350,000 active. AID 720706;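 active = significant combined selectivity score with lowered wild-type GFP, culture density cut under 30%, mutant RFP and density less affected; inactive = any of these conditions unmet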; also: one replicate is shown; some compounds called inactive have numbers as strong as hits
rRNA inh HTS OD600: recorded beside rRNA inh HTS, whose call it bears; OD600 change, %; measured here: OD600 growth;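 optical density of the mix in the first replicate; 0 = DMSO median and -100 = no signal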
rRNA inh HTS RFP: further read-out of rRNA inh HTS, marked with its call; RFP signal change, %; measured here: RFP humanized mutant strains;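 first replicate; 0 = DMSO median and -100 = no signal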
Active calls of the source: *; i = inactive; nt = no result given. Only part of the results is shown; rates above refer to the full screens.

SMILES	FGF22 binding	rRNA inh HTS	rRNA inh HTS OD600	rRNA inh HTS RFP
COc1ccc(CN(C)C[C@@H]2Oc3ccc(NC(=O)CCC(F)(F)F)cc3C(=O)N([C@@H](C)CO)C[C@@H]2C)cc1	i	-1	-2	-1.0
C[C@H](CO)N1C[C@H](C)[C@H](CN(C)C(=O)Nc2ccccc2)Oc2ccc(NS(C)(=O)=O)cc2CC1=O	i	2	12	1.8
CCCNC(=O)N1CC2(C1)[C@H](c1ccccc1)[C@H](CO)N2Cc1cccc(F)c1	i	-2	4	1.7
Cc1ccc(S(=O)(=O)N(C)C[C@@H]2OCCCC[C@H](C)Oc3ccc(NS(=O)(=O)c4ccccc4)cc3C(=O)N([C@H](C)CO)C[C@@H]2C)cc1	i	0	4	-0.5
CC(C)(C)[S@@](=O)N1Cc2cc(C(=O)NCc3ccc4c(c3)OCO4)nc(-c3cccc(-c4cccnc4)c3)c2[C@H]1CCO	i	-10	-43	39
CCCC(=O)Nc1ccc2c(c1)C(=O)N(C)C[C@@H](OC)[C@@H](C)CN(S(=O)(=O)c1cn(C)cn1)[C@H](C)CO2	i	1	2	0.8
C[C@H]1CCCCO[C@@H](CN(C)C(=O)Nc2ccc(C(F)(F)F)cc2)[C@@H](C)CN([C@@H](C)CO)C(=O)c2cc(NC(=O)c3ccncc3)ccc2O1	i	-2	-8	-0.4
C[C@@H]1CN([C@@H](C)CO)C(=O)c2cccc(NC(=O)C3CCCCC3)c2O[C@H]1CN(C)Cc1ccccc1	i	-5	-17	-0.3
C[C@@H]1CN([C@@H](C)CO)C(=O)c2cc(N(C)C)ccc2O[C@@H]1CN(C)S(=O)(=O)c1ccc(F)cc1	i	-1	-4	3.9
CCCNC(=O)Nc1ccc2c(c1)C(=O)N(C)[C@@H]1CC[C@H](CC(=O)NC3CCC3)O[C@H]1CO2	i	0	2	-1.2
CCOC(=O)C1=C(C(=O)OCC)C2N(Cc3ccc(C(F)(F)F)cc3)c3ccccc3[C@@]23C[C@@H](C(=O)OC)N(S(=O)(=O)c2ccc(OC)cc2)C3=N1 (stereo partly drawn)	nt	14	16	-2.0
C[C@@H]1CN([C@H](C)CO)C(=O)Cc2cc(NC(=O)Cc3cn(C)c4ccccc34)ccc2O[C@@H]1CN(C)Cc1ccc(C(F)(F)F)cc1	i	3	-1	0.7
CO[C@@H]1CN(C)C(=O)c2ccc(NS(=O)(=O)c3ccccc3)cc2OC[C@H](C)N(Cc2nccs2)C[C@@H]1C	i	-3	-2	0.9
C[C@@H]1CCCCO[C@@H](CN(C)Cc2ccc3c(c2)OCO3)[C@H](C)CN([C@@H](C)CO)C(=O)c2cc(NC(=O)c3ccncc3)ccc2O1	i	0	0	-2.9
CNC[C@@H]1OCCCC[C@H](C)Oc2ccc(NC(=O)Nc3ccccc3)cc2C(=O)N([C@H](C)CO)C[C@H]1C	i	8	0	-0.6

Compounds above with two or more sulfur atoms (2):
SMILES	FGF22 binding	rRNA inh HTS	rRNA inh HTS OD600	rRNA inh HTS RFP
Cc1ccc(S(=O)(=O)N(C)C[C@@H]2OCCCC[C@H](C)Oc3ccc(NS(=O)(=O)c4ccccc4)cc3C(=O)N([C@H](C)CO)C[C@@H]2C)cc1	i	0	4	-0.5
CO[C@@H]1CN(C)C(=O)c2ccc(NS(=O)(=O)c3ccccc3)cc2OC[C@H](C)N(Cc2nccs2)C[C@@H]1C	i	-3	-2	0.9

Other entries follow.
SMILES	FGF22 binding	rRNA inh HTS	rRNA inh HTS OD600	rRNA inh HTS RFP
O=C(Cc1ccncc1)Nc1ccc2c(c1)[C@H]1C[C@@H](CC(=O)N3CCOCC3)O[C@@H](CO)[C@H]1O2	i	0	1	-3.2
C[C@@H]1CN([C@H](C)CO)C(=O)Cc2cc(NC(=O)Cc3ccccc3)ccc2O[C@@H]1CN(C)S(=O)(=O)c1ccc(F)cc1	i	-3	-7	-0.2
C[C@@H]1CCCCO[C@H](CN(C)Cc2ccc(C(=O)O)cc2)[C@H](C)CN([C@@H](C)CO)C(=O)c2cc(NC(=O)c3ccccc3)ccc2O1	i	0	6	0.4
CS(=O)(=O)N1CC(=O)N2[C@@H](CO)[C@H](c3ccc(C#Cc4ccc(F)cc4)cc3)[C@@H]2C1	i	-2	1	2.9
O=C(C[C@H]1CC[C@@H]2[C@H](COC[C@H](O)CN2C(=O)Nc2ccc(Cl)c(Cl)c2)O1)NCc1ccccc1	i	-58	-73	-8.9
C[C@H](CO)N1C[C@H](C)[C@H](CN(C)Cc2cncnc2)Oc2ncc(/C=C/c3ccccc3)cc2C1=O	i	-3	5	0.8
C[C@H](CO)N1C[C@H](C)[C@H](CN(C)CC2CCCCC2)Oc2c(NC(=O)Nc3ccc(C(F)(F)F)cc3)cccc2C1=O	i	0	13	-0.8
N#C[C@H]1[C@@H](c2ccc(C3=CCCC3)cc2)[C@H](CO)N1C(=O)c1ccccn1	i	7	11	-3.5
C[C@@H](O)C#Cc1ccc([C@H]2[C@H]3CN(C(=O)c4ccc5c(c4)OCO5)CCCCN3[C@H]2CO)cc1	i	3	-9	2.2
CN(C)CCCNC(=O)C[C@H]1CC[C@H]2[C@@H](COc3ccc(NC(=O)C4CCC4)cc3C(=O)N2C)O1	i	4	3	-0.3
C[C@@H]1CN([C@H](C)CO)C(=O)c2cc(C3=CCCCC3)cnc2O[C@H]1CN(C)C(=O)Nc1ccc(F)cc1	i	-3	7	2.7
COc1ccc(NC(=O)Nc2cccc3c2O[C@H](CN(C)CC2CC2)[C@@H](C)CN([C@H](C)CO)C3=O)cc1	i	0	1	1.5
C[C@@H]1CN([C@@H](C)CO)C(=O)c2cc(NC(=O)C3CCCCC3)ccc2O[C@H]1CN(C)C(=O)NC1CCCCC1	i	4	14	-0.6
CC(C)NC(=O)N[C@@H]1CC[C@@H](CCn2cc(-c3ccccc3)nn2)O[C@@H]1CO	i	-2	-7	1.2
O=S1(=O)N[C@@H](Cc2ccccc2)COc2cc(N3CCCCC3)ccc21	i	-24	-33	3.4
C[C@@H]1CN([C@H](C)CO)C(=O)Cc2cc(NC(=O)CCCCCC(=O)Nc3ccccc3N)ccc2O[C@H]1CN(C)Cc1ccncc1	i	-3	-1	0.8
COc1ccccc1C#Cc1ccc2c(c1)O[C@H](CN(C)Cc1cncnc1)[C@@H](C)CN([C@@H](C)CO)S2(=O)=O	i	-18	-27	15
C[C@@H]1CCCCO[C@@H](CN(C)C(=O)C2CCCCC2)[C@H](C)CN([C@H](C)CO)C(=O)c2cc(NC(=O)CCCN(C)C)ccc2O1	i	1	9	-2.5
COc1cccc(-c2cn(CC[C@H]3CC[C@@H](NC(=O)CN(C)C)[C@@H](CO)O3)nn2)c1	i	1	4	-1.4
COc1cccc(C(=O)Nc2ccc3c(c2)C(=O)N(C)C[C@H](OC)[C@@H](C)CN(C(=O)C2CCCC2)[C@@H](C)CO3)c1	i	-4	-8	-5.4
COc1cccc(CNC(=O)[C@H]2[C@H](CO)[C@H]3Cn4c(cccc4=O)[C@@H]2N3C(=O)C2CC2)c1	i	1	-1	2.2
C[C@@H]1CN([C@@H](C)CO)S(=O)(=O)c2ccc(C#CCN(C)C)cc2O[C@H]1CN(C)C(=O)CN(C)C	i	2	9	-1.4
COc1ccc(NC(=O)N(C)C[C@@H]2Oc3ccc(NC(=O)CCCN(C)C)cc3C(=O)N([C@H](C)CO)C[C@H]2C)cc1	i	0	-7	-1.3
COc1ccc2c3c([nH]c2c1)[C@H](CO)N(C(=O)CC1CC1)CC31CCN(C(=O)c2ccccc2)CC1	i	-6	7	1.8
CC(C)NC(=O)Nc1ccc2c(c1)C(=O)N([C@H](C)CO)C[C@H](C)[C@@H](CN(C)C(=O)NC1CCCCC1)OCCCC[C@H](C)O2	i	-3	2	-0.2
CC(C)C#Cc1ccc2c(c1)O[C@@H](CN(C)CC1CCOCC1)[C@@H](C)CN([C@@H](C)CO)S2(=O)=O	i	2	4	0.6
CN1c2ccc(-c3ccccc3)cc2[C@H]2[C@H](CCN2C(=O)CN2CCOCC2)[C@@H]1CO	i	-1	13	0.9
O=S(=O)(c1ccccc1F)N1CC[C@@H]2[C@H](CO)Nc3ccc(-c4cccc(F)c4)cc3[C@@H]21	i	0	0	-1.7
CC(=O)N(C)C[C@@H]1Oc2cc(C#Cc3ccc(F)cc3)ccc2S(=O)(=O)N([C@@H](C)CO)C[C@H]1C	i	-28	-50	3.5
CNC[C@H]1Oc2ccc(NC(=O)Cc3cn(C)c4ccccc34)cc2CC(=O)N([C@@H](C)CO)C[C@@H]1C	i	3	1	0.0

Whole records, looked up by structure. Order of screens: FGF22 binding	rRNA inh HTS	rRNA inh HTS OD600	rRNA inh HTS RFP
O=S(=O)(c1ccccc1F)N1CC[C@@H]2[C@H](CO)Nc3ccc(-c4cccc(F)c4)cc3[C@@H]21 is listed as i	0	0	-1.7
C[C@@H]1CCCCO[C@@H](CN(C)C(=O)C2CCCCC2)[C@H](C)CN([C@H](C)CO)C(=O)c2cc(NC(=O)CCCN(C)C)ccc2O1 is listed as i	1	9	-2.5
COc1ccc(NC(=O)N(C)C[C@@H]2Oc3ccc(NC(=O)CCCN(C)C)cc3C(=O)N([C@H](C)CO)C[C@H]2C)cc1 is listed as i	0	-7	-1.3
C[C@@H]1CN([C@H](C)CO)C(=O)Cc2cc(NC(=O)CCCCCC(=O)Nc3ccccc3N)ccc2O[C@H]1CN(C)Cc1ccncc1 is listed as i	-3	-1	0.8
CC(C)NC(=O)Nc1ccc2c(c1)C(=O)N([C@H](C)CO)C[C@H](C)[C@@H](CN(C)C(=O)NC1CCCCC1)OCCCC[C@H](C)O2 is listed as i	-3	2	-0.2

Further entries
SMILES	FGF22 binding	rRNA inh HTS	rRNA inh HTS OD600	rRNA inh HTS RFP
Cc1noc(C)c1NC(=O)N(C)C[C@@H]1OCCCC[C@@H](C)Oc2ccc(NS(=O)(=O)c3ccc(F)cc3)cc2C(=O)N([C@H](C)CO)C[C@@H]1C	i	3	4	1.2
C[C@H](CO)N1C[C@H](C)[C@H](CN(C)C(=O)Nc2ccccc2)Oc2c(NC(=O)c3nc4ccccc4s3)cccc2C1=O	i	-15	-13	2.2
CCCNC(=O)N(C)C[C@H]1Oc2cc(C#CCN(C)C)ccc2S(=O)(=O)N([C@@H](C)CO)C[C@H]1C	i	0	2	-1.2
CCOC(=O)c1cc2c(c(-c3cccc(-c4cccc(OC)c4)c3)n1)[C@@H](CCO)N(S(=O)C(C)(C)C)C2 (stereo partly drawn)	i	-6	-9	3.8
CO[C@H]1CN(C)C(=O)c2ccc(NC(=O)C3CCCCC3)cc2OC[C@H](C)N(Cc2cccnc2)C[C@@H]1C	i	-2	1	1.3
CNC[C@H]1Oc2ccc(N(C)C)cc2C(=O)N([C@H](C)CO)C[C@H]1C	i	2	9	0.3
COc1ccc2c3c([nH]c2c1)[C@@H](CO)N(Cc1ccccc1F)CC31CN(C(=O)C2CC2)C1	i	-2	-7	0.7
O=C(NCC[C@H]1CC[C@H](NC(=O)C2CCCC2)[C@H](CO)O1)c1cnccn1	i	4	0	-0.9
C[C@H](CO)N1C[C@H](C)[C@H](CN(C)C(=O)c2ccccc2)Oc2cc(C3=CCCC3)ccc2S1(=O)=O	i	-6	-23	1.5
C[C@H](CO)N1C[C@H](C)[C@H](CN(C)Cc2ccc(Cl)c(Cl)c2)OCCCC[C@H](C)Oc2ccc(NC(=O)Nc3ccccc3)cc2C1=O	i	-3	-3	-0.8
C[C@@H]1CN([C@@H](C)CO)C(=O)c2cccc(NS(=O)(=O)c3ccccc3)c2O[C@@H]1CN(C)C(=O)Nc1ccc2c(c1)OCO2	i	-1	-9	-0.4
CN1CCN(C(=O)C[C@@H]2C[C@H]3c4cc(NC(=O)Cc5ccncc5)ccc4O[C@H]3[C@@H](CO)O2)CC1	i	5	5	-0.5
C[C@@H]1CCCCO[C@@H](CN(C)Cc2ccc(C(=O)O)cc2)[C@@H](C)CN([C@H](C)CO)C(=O)c2cc(NS(=O)(=O)c3ccccc3)ccc2O1	i	1	1	-1.2
C[C@H]1CN([C@@H](C)CO)C(=O)c2cc(C#CC(C)(C)O)cnc2O[C@H]1CN(C)C(=O)c1ccccc1F	i	3	2	-1.2
CC(=O)N1CCN(c2ccc(N3CCN(Cc4ccccc4)[C@@H](C)C3)c(C)c2)[C@@H](C)C1	i	5	15	3.9
CCCN1[C@@H]2Cn3c(ccc(-c4ccc(F)cc4)c3=O)[C@H]1[C@@H](C(=O)NCCOC)[C@@H]2CO	i	2	3	-1.4
COc1cccc(NC(=O)N(C)C[C@@H]2Oc3ncc(C#Cc4ccc(F)cc4)cc3C(=O)N([C@@H](C)CO)C[C@@H]2C)c1	i	-7	-7	4.0
C[C@@H]1CN([C@@H](C)CO)C(=O)c2cc(-c3cccc(F)c3)cnc2O[C@@H]1CN(C)S(C)(=O)=O	i	8	1	-0.5
CCCC#Cc1cnc2c(c1)C(=O)N([C@@H](C)CO)C[C@H](C)[C@@H](CN(C)C(=O)Nc1cccc(F)c1)O2	i	0	0	2.9
COc1ccc(S(=O)(=O)Nc2ccc3c(c2)CC(=O)N([C@@H](C)CO)C[C@@H](C)[C@@H](CN(C)C(=O)NC(C)C)O3)cc1	i	7	6	-0.2
